Assay outcomes as filed in PubChem BioAssay.
CapD inh = CapD enzyme inhibition. purified CapD enzyme, fluorescence intensity read-out; hits give low values; some hits fall short of the stated cut. z-score (concentration not given with the values). 140,000 tested, 0.23% active. AID 492967;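 active = z-score under -4 in either of two replicates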;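 also: stock transfer was 100 nL into about 40 µL; score is relative to mean and spread of the plate; one replicate is shown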
AID504770 = growth inhibitors of E. coli YBA685 in a screen for V. cholerae RctB (chromosome II replication) inhibitors | E. coli YBA685 rctB-dependent plasmid, OD600 growth, 3 h; hits give low values | z-score (no concentration beside the values) | 130,000 tested, 0.27% active | AID 504770;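 active = z-score under -2 on both plates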;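 also: wells of about 30 µL received 100 nL stock; score is relative to mean and SD of the test wells; the first replicate is given; strong numbers were not always called active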
Starred values were filed as active, the others as inactive; / = no result given. A portion of the library; rates above refer to the full screens.

SMILES	CapD inh	AID504770
O=S(=O)(NC1CCCc2ccccc21)c1ccc(-n2cccn2)cc1 (configuration not stated)	-0.56	-2.2
CCOC(=O)c1cc(C#N)c(N2CCN(S(=O)(=O)c3cc(F)c(Br)cc3F)CC2)nc1C(F)(F)F	0.8	/
Cc1onc(-c2ccccc2)c1-c1ccnn1C(=O)c1ccc(Cl)cc1	11	-0.1
Cn1cc(S(=O)(=O)N2CCc3ccccc32)cc1C(=O)N1CCCCCC1	0.4	1.4
O=C(CC1c2ccccc2Oc2ccccc21)Nc1ccccn1	1.7	0.3
CCOC(=O)C1=C(C)NC2=C(C(=O)C(C(=O)OCC)C(c3ccccc3OC)C2)C1c1cc(OC)c(OC)c(OC)c1 (configuration not stated)	13	/
COC(=O)COc1ccc2c(=O)c(-c3ccc(OC)c(OC)c3)c(C(F)(F)F)oc2c1	0.095	/
Cc1c(N2C(=O)SC(CC(=O)O)C2=O)c(=O)n(-c2ccccc2)n1C (configuration not stated)	-0.46	-0.1
CSc1nc(NC(=O)NS(=O)(=O)Cc2ccc(Cl)cc2Cl)nc(N2CCCC2)n1	-0.76	2.5
COc1ccc(CCN2C(=O)/C(=C3/C(=O)N(C)c4ccccc43)SC2=S)cc1OC	-0.095	/
N#CCc1nc(-c2ccccn2)n[nH]1	0.56	-1.2
CC(=O)Nc1cccc(Oc2ccc3c(c2)C(=O)N(c2cccc(Cl)c2)C3=O)c1	-0.18	0.2
O=C(CCc1nnc2n(CCc3ccccc3)c(=O)c3ccccc3n12)NCCN1CCOCC1	-0.36	0.5
O=C(O)c1cc2c(s1)-c1ccccc1CC2	/	-0.4
COc1ccc(C=NCCN2Cc3ccccc3C2=O)cc1OC	0.54	-0.35
CCOc1ccc(C2c3[nH]c4ccccc4c3CCN2C(=O)c2ccccc2C)cc1 (configuration not stated)	-0.85	/
CCSc1nnc2c(=O)[nH]c(=O)[nH]c2n1	-2.8	-1.2
Cc1ccc(CCC(=O)O)o1	-0.93	-0.35
CC1(C)N=C(N)N=C(N)N1c1ccc(Cl)cc1	0.23	/
CC(C)c1ccccc1NC(=O)COc1ccc(Br)cc1	-0.26	-0.9
NC(=O)Cc1nc(-c2ccc(Br)cc2)cs1	-0.19	1.9
Nc1ccc(S(=O)(=O)Nc2cc(Cl)cc(Cl)c2)cc1	-0.15	/
CN(C(=O)c1cccn(Cc2ccc(C(F)(F)F)cc2)c1=O)c1ccccc1	-0.49	/
COc1cccc(NC(=O)Cc2ccc3c(c2)OCCO3)c1	/	0.1
CCN(CC)S(=O)(=O)c1ccc2oc(SCC3CN=C(c4ccc(OC)cc4)S3)nc2c1 (configuration not stated)	/	-0.2
SMILES	CapD inh	AID504770
N#Cc1cnn2c(-c3ccccc3OCc3ccc(Cl)cc3)ccnc12	5.9	/
CC(=O)N1c2ccccc2NC2=C(C(=O)CCC2)C1c1ccccc1 (configuration not stated)	-1.5	-0.7
Cc1[nH]c(C)c(Cl)c(=O)c1Cl	/	-0.15
C(=NCc1ccccc1)c1cccs1	0.67	/
Cc1cccc(C)c1-n1c(=S)[nH]c2[nH]ncc2c1=O	-0.32	/
COc1ccc(C2CC(=O)C=C(NCc3ccccc3)C2)cc1 (configuration not stated)	-0.65	1.2
O=C(CCC(=O)Nc1ccccc1)NN=C1CCCCC1	0.12	1.4
NS(=O)(=O)c1ccc(CNC(=O)c2cccc(S(=O)(=O)NCC(F)(F)F)c2)cc1	/	-1.4
Cc1cc(=S)oc2ccccc12	/	-0.5
COc1cc2c(cc1OC)C(COc1cc(C)cc(C)c1)N(C(C)=O)CC2 (configuration not stated)	/	2.4
CCOC(=O)c1c(CN2CCCCC2)n(Cc2ccccc2)c2cc(Br)c(O)cc12	-0.69	/
CCCn1c(C(O)c2ccc(C(C)C)cc2)nc2ccccc21 (configuration not stated)	-0.5	0.1
Cc1cc2ncc(-c3ccc(Br)cc3)nc2cc1C	1.4	/
CC(C)/C=C1\CC/C(=C\c2ccc(Cl)cc2)C1=O	0.11	-0.55
Cc1ccc(C)n1C(Cc1ccccc1)C(=O)O (configuration not stated)	0.82	0.05
Cc1ccc(OCc2nnc(SCC(=O)NC3CCCCC3)n2C(C)C)c(C)c1	/	0.6
COc1cc(OC)nc(N2CCN(c3ccc(F)cc3)CC2)n1	-0.18	/
Cc1ccc(C(=O)N2CCc3ccccc32)cc1	0.045	-0.1
COc1ccc(C2OC(=O)Cc3cc(OC)c(OC)cc32)cc1OC (configuration not stated)	0.72	0
CS(=O)(=O)c1cnc(-c2ccc(OCc3cccc(C(F)(F)F)c3)cc2)nc1-c1ccc(Cl)cc1	-0.075	/
CCOc1ccc(NC(=O)CCCN2C(=O)/C(=C/c3ccc(Cl)cc3)SC2=S)cc1	-0.11	-1.4
O=C(NC1CCOC1=O)c1ccc(COc2ccc3ccccc3c2)o1 (configuration not stated)	-0.41	0.15
COc1cccc(N2CCN(CC(=O)C34CC5CC(CC(C5)C3)C4)CC2)c1	/	-0.7
Oc1c(Cl)cc(Cl)cc1C=NCc1ccc(Cl)cc1	-0.57	/
O=C(NNC(=O)c1cccc2ccccc12)OCCCCc1ccc([N+](=O)[O-])cc1	-0.56	/

Arranged by molar mass (smallest number first): some entries from above.
SMILES	CapD inh	AID504770
O=C(CCC(=O)Nc1ccccc1)NN=C1CCCCC1	0.12	1.4
COc1cc2c(cc1OC)C(COc1cc(C)cc(C)c1)N(C(C)=O)CC2 (configuration not stated)	/	2.4
O=C(NNC(=O)c1cccc2ccccc12)OCCCCc1ccc([N+](=O)[O-])cc1	-0.56	/
NS(=O)(=O)c1ccc(CNC(=O)c2cccc(S(=O)(=O)NCC(F)(F)F)c2)cc1	/	-1.4

An excerpt of these results, in markdown.
| mol | CapD inh | AID504770 |
| --- | --- | --- |
| CCCn1c(C(O)c2ccc(C(C)C)cc2)nc2ccccc21 (configuration not stated) | -0.5 | 0.1 |
| Cc1cc2ncc(-c3ccc(Br)cc3)nc2cc1C | 1.4 | / |

(further entries)
SMILES	CapD inh	AID504770
N#CCn1ccn(-c2ccc3c(c2)OCO3)c(=O)c1=O	/	0.25
COc1ccc(-c2nc(Cn3c(SCc4cc(C)ccc4C)nc4ccncc43)c(C)o2)cc1	0.33	-0.15
Cc1ccccc1NC(=O)CSc1nnc(C)c2ccccc12	-0.2	/
CN(C)c1nc(-c2ccccc2)nnc1-c1ccccc1	-0.42	0
O=C(NC1=NCCS1)c1cccs1	-0.92	-1.1
Cc1ccc(S(=O)(=O)N(CCO)c2cc3c(s2)CCCC3)cc1	0.09	0.3
O=C(NNc1ccnc2cc(Cl)ccc12)C1CCCCC1	/	0.2
O=C(CSc1nnc(COc2ccccc2)o1)N1CCCCC1	-0.43	2.2
CC1=CC(=C2C(=O)c3ccccc3C2=O)C=C(C)N1CCO	0.62	0.05
O=C(CN1CCC(NC(=O)c2ccccc2)CC1)NCc1ccccc1F	/	0.05
O=C(Nc1cccnc1)N(c1ccccc1)c1ccccc1	0.12	1.9
O=C1c2cccnc2C(=O)N1CCc1ccc(S(=O)(=O)N2CCCCC2)cc1	0.09	-0.35
CN(C(=O)c1cccc(S(=O)(=O)N(C)C)c1)C1CCCCC1	/	1.8
O=[N+]([O-])c1cccc(-c2nc(-c3ccccc3)nc(-c3ccccc3)n2)c1	0.08	/
COc1ccc(C2Nc3ccccc3C(=O)N2Cc2ccco2)cc1COc1ccc([N+](=O)[O-])c(C)c1 (configuration not stated)	8.6	/
O=C(O)CCC(=O)N1CCN(c2ccccn2)CC1	16	0.7
Cn1c(Cc2ccccc2)nnc1SC1CCOC1=O (configuration not stated)	/	-2.2
COc1ccc(N(C(=O)C(C)C)S(=O)(=O)c2cccc3cccnc23)cc1	3.8	-1.1
O=C1c2ccccc2C(=O)N1Cc1cc(Cl)c2cccnc2c1O	0.12	-0.5
Cn1c(CS(=O)(=O)c2ccccc2)c(C#N)c2ccccc21	-0.15	1.6
Cc1ccc(-c2nc3ncccc3o2)cc1NC(=S)NC(=O)c1oc2ccccc2c1C	0.65	-0.95
COc1cccc(NC(=S)N2CCOCC2)c1	-0.31	/
CS(=O)(=O)/C(C#N)=C/c1cccn1-c1ccc(OC(F)(F)F)cc1	-1	-0.7
CCOC(=O)c1c[nH]n2c(=O)cc(C)nc12	0.65	-0.95
O=C(NCCCn1ccnc1)OCc1cccc(Oc2ccccc2)c1	0.11	/

The list goes on (three carried over from the part before).
SMILES	CapD inh	AID504770
CS(=O)(=O)/C(C#N)=C/c1cccn1-c1ccc(OC(F)(F)F)cc1	-1	-0.7
CCOC(=O)c1c[nH]n2c(=O)cc(C)nc12	0.65	-0.95
O=C(NCCCn1ccnc1)OCc1cccc(Oc2ccccc2)c1	0.11	/
CCOC(=O)c1[nH]c(C)c(C(=O)Nc2cc(C)cc(C)c2)c1C	-1.3	-0.1
CCCOc1ccccc1N=c1ssc2c1-c1cc(OCC)ccc1NC2(C)C	-0.48	/
CC1=NNC(=O)/C1=C/C1CC=CCC1 (configuration not stated)	/	-0.9
CC(C)OC(=O)Cn1c2ccccc2c2nc3ccccc3nc21	0.35	1.5
COc1ccc(OC)c(-n2c(SCC(=O)NCC3CCCO3)nnc2-c2c[nH]c3ccccc23)c1 (configuration not stated)	0.39	0.25
O=C(NNC(=O)c1csc(Cn2cnc(Cl)c2Cl)n1)OCc1cccc(OCc2ccccc2)c1	-0.075	/
O=C(O)C1CCCN(S(=O)(=O)c2cccs2)C1 (configuration not stated)	0.4	0.15
Cc1nc(C(=O)Nc2cccc(C(F)(F)F)c2)nn1-c1ccc([N+](=O)[O-])cc1	-0.2	/
CCOC(=O)C1CCCN(CC(O)COc2ccc(OC)cc2C(C)(C)C)C1 (configuration not stated)	/	-0.45
CCCOC(=O)C(C)Sc1n[nH]c(=O)[nH]c1=O (configuration not stated)	0.46	0.2
CCN1CCN(C(=O)CCCN2C(=O)c3ccccc3Sc3ncccc32)CC1	-0.33	1.3
CCN(CC)C(=O)Oc1cc2c(-c3cc4cccc(OC)c4o3)cc(=O)oc2cc1C	/	-0.3
CCOc1ccc(C(NC(=O)c2cc(OC)c(OC)c(OC)c2)c2cc([N+](=O)[O-])c3cccnc3c2O)cc1 (configuration not stated)	-0.38	/
O=C(Nc1cc(C(F)(F)F)cc(C(F)(F)F)c1)C1CC1	0.015	-0.45
CC1CCCCN1C(=O)c1cc(-c2ccc(F)cc2)no1 (configuration not stated)	-0.47	-0.05
COC(=O)Cc1ccc2c(c1)NC(=O)CO2	-0.45	-0.9
NC(=O)C1CCN(C(=O)c2ccc(CS(=O)(=O)c3c(Cl)cccc3Cl)o2)CC1	-1	-1.3
c1ccc(-c2nnc(C3CCNCC3)o2)cc1	0.065	/
O=C1c2ccccc2C(=O)N1CCC(c1ccccc1)c1ccco1 (configuration not stated)	-0.26	-1.1
COc1ccc(CCNC(=O)c2ccc(S(=O)(=O)N3CCCC3)cc2)cc1	/	0.2
Cc1ccc(CSCc2ccc(C(=O)NCc3cccs3)o2)cc1	-1.1	-0.8
CC1CCCC(C)N1C(=O)CSc1nc(N)c(-c2ccccc2)c(=O)[nH]1 (configuration not stated)	/	-1.6
CCn1c(=O)cc(OCC(=O)NCCCN2CCN(c3cccc(Cl)c3)CC2)c2ccccc21	0.13	-0.05
CNC(=O)Nc1cc(C)nn1C	0.18	/
COC(=O)CSc1ncccc1C(=O)OC	-0.31	/
SMILES	CapD inh	AID504770
CCc1ccc(NC(=O)c2cc(C)no2)cc1	-0.6	-0.9
CCc1ccc(CN(C)C(=O)C2=CC=CN3CCS(=O)(=O)N=C23)cc1	/	-1
COc1ccccc1-n1nnnc1SC(C)c1nnc(-c2ccc(F)cc2)o1 (configuration not stated)	/	-0.15
O=c1ccc(S(=O)(=O)N2CCCC2)cn1Cc1coc(-c2ccccc2)n1	/	-0.35
CC1Sc2ccc(C(=O)Nc3ccc(N4CCOCC4)cc3)cc2NC1=O (configuration not stated)	/	-0.1
Cc1cc2cc(CNC(=O)CC3CCCCC3)ccc2n1C	-1.4	-0.25
CC(=O)NCCc1nc2ccccc2n1C	0.18	-0.55
CCOC(=O)C1(C(=O)OCC)CCC1	-0.41	1.2
O=C1c2ccccc2C(=O)N1C1c2ccccc2Oc2ccccc21	-0.14	0.15
CCN1C(=O)CSc2ccc(C(=O)NCCc3ccc(OC)c(OC)c3)cc21	20	0.05
NC(=O)/C(=C\c1ccccc1O)C(N)=S	/	0
O=C1C2CC=CCC2C(=O)N1CC(=O)N1N=C2/C(=C/c3cccs3)CCCC2C1c1cccs1 (configuration not stated)	/	0.6
COc1ccc(NC(=O)CSC2=NCCS2)cc1	-0.28	-0.9
CCCc1oc2cc(O)ccc2c(=O)c1Oc1ccccc1	0.36	0.6
COc1ccc(-c2cc(C(F)(F)F)n3nc(C(=O)N(C)CCc4ccccn4)cc3n2)cc1OC	-0.45	/
CCSCCOC(=O)C1=C(C)N(C)C(=O)NC1c1ccc(OCc2ccccc2)cc1 (configuration not stated)	-0.14	/
COCc1nc2ccccc2n1CC(C)C	-0.3	-0.7
CC(=O)N1N=C(c2c(-c3ccccc3)c3cc(Br)ccc3[nH]c2=O)CC1c1ccccc1F (configuration not stated)	-0.21	/
CC(C)c1ccc(C2(C#N)C(=O)Nc3ccccc32)cc1 (configuration not stated)	-0.81	0.15
COc1ccc(CCNc2ncnc3c2cnn3-c2cccc(C)c2)cc1OC	-0.17	/
CN1/C(=C\C=C(C#N)C#N)C(C)(C)c2ccccc21	/	1.1

Reprinted at random: 5 compounds from above
SMILES	CapD inh	AID504770
Cc1cc2cc(CNC(=O)CC3CCCCC3)ccc2n1C	-1.4	-0.25
CCCc1oc2cc(O)ccc2c(=O)c1Oc1ccccc1	0.36	0.6
CCc1ccc(NC(=O)c2cc(C)no2)cc1	-0.6	-0.9
CCc1ccc(CN(C)C(=O)C2=CC=CN3CCS(=O)(=O)N=C23)cc1	/	-1
CC(C)c1ccc(C2(C#N)C(=O)Nc3ccccc32)cc1 (configuration not stated)	-0.81	0.15
